Beta apoptosis: beta cell apoptosis inhibition. INS-1E cytokine-induced death, ATP luminescence, 48 h; percent of positive-control rescue, neutral wells zero. 0.8% of 300,000 active. protection from apoptosis, % (no concentration beside the values). AID 435005;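 active = all replicates at 75% or more, or half of them and the mean; inconclusive = half reach 75% but not the mean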;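 note: 0% = cytokine-treated negative control wells and 100% = positive control rescue; higher means more ATP so stronger rescue from cytokine killing; wells of about 40 µL received 100 nL stock; the first replicate is given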
RanGTP-Impb inh: disruptors of Ran-importin-beta complex formation – biochemical, FRET, CFP-Ran, YFP-importin-beta, homogeneous, primary screen; cell-free CFP-Ran/YFP-importin-beta FRET ratio; inhibition, % (test concentration not listed); 1.1% of 300,000 active; AID 2216;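 active = most replicates above 15%; inconclusive = exactly half above 15%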;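 note: 0% = DMSO wells and 100% = Ran loaded with GDP instead of GTP; wells of about 40 µL received 100 nL stock; the first replicate is given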
Calb FLC: affects C. albicans growth with fluconazole. C. albicans CaCi-2 (fluconazole-resistant clinical isolate) + fluconazole, Alamar Blue growth, 48 h. growth inhibition, % (test concentration not listed). 0.57% of 300,000 active;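 active = most replicates above 75%; inconclusive = exactly half above 75%; inactive = most below 75%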;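 note: all wells also contain fluconazole at 8 µg/ml as a sub-toxic cotreatment; 0% = median of DMSO wells and 100% = median of geldanamycin control wells; wells of about 8 µL received 7.5 nL stock; the first replicate is given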
T cruzi repl: blocks replication of Trypanosoma cruzi. T. cruzi beta-gal in NIH3T3, luminescence, 90 h. inhibition, % (concentration not given with the values). 1.4% of 300,000 active. AID 1885;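 active = mean inhibition across valid replicates above about 55%, limit read from the data; inconclusive = mean below that limit but half or more replicates reach it; inactive = mean below it, under half of replicates reach it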;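 note: signal also drops with host cell toxicity which is not excluded here; 0% = plate median of DMSO wells and 100% = zero luminescence signal; higher percent means less beta-gal luminescence so fewer parasites; stock transfer was 50 nL into about 50 µL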
LANA-H2B inh: blocks KSHV LANA binding to histone H2A/H2B | inhibition, % (test concentration not listed) | 0.6% of 320,000 active | cell-free LANA-H2A/H2B peptide, fluorescence polarization | AID 2629 | Q9QR71; in the data active = inhibition mostly above about 10%, no sharp cut-off; inactive = mostly below about 6.7%;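 note: stock transfer was 7.5 nL into about 10 µL; 0% = median of vehicle wells and 100% = median of positive control wells; one replicate is shown; the record names a cut of 25% in any replicate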
Target sequence (Q9QR71 whole entry, looked up): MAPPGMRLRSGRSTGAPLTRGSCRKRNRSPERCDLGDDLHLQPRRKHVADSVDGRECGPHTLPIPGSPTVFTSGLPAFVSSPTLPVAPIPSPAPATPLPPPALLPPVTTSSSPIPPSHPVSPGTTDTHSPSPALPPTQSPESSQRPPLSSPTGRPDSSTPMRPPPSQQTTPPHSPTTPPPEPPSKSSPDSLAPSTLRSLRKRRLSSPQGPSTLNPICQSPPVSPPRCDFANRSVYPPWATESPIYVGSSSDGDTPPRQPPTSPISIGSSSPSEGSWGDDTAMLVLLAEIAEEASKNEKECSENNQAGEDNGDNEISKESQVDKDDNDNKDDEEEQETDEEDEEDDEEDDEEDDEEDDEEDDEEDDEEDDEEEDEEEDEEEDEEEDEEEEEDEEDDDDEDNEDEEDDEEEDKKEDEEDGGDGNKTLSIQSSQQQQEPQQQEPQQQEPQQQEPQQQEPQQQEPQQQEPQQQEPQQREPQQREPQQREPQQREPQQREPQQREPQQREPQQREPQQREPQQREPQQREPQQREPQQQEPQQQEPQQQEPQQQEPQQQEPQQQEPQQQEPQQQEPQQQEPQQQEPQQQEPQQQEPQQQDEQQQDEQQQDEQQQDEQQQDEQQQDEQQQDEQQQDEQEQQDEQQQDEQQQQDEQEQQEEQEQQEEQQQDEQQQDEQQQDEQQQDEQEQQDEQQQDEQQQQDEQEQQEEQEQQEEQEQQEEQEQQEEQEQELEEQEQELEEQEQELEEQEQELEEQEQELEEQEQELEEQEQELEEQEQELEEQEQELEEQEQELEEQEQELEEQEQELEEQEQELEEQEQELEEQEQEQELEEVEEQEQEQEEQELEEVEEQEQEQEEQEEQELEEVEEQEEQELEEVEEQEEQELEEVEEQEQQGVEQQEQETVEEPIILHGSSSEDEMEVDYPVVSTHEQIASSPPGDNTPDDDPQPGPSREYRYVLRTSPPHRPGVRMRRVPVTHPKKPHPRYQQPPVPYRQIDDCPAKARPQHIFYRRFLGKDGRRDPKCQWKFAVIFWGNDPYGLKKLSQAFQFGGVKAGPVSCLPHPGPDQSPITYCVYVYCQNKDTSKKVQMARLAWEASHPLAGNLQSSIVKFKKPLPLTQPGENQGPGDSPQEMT
B2AR ag: agonists of human beta-2 adrenergic receptor inducing internalization; P07550; Am2.2-beta2AR cells, FAP receptor internalization, flow cytometry; reference of the scale not given here; response, % (concentration not given with the values); 0.43% of 340,000 active; AID 504454;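 active = response above a set limit, near 3 SD of response in nonfluorescent compounds, cut at about 42% in these data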;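 note: stock transfer was 100 nL into about 11 µL; a reference agonist was the positive control; negative values mostly stem from fluorescent compounds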
UCH37 DUB inh: blocks the human deubiquitinase UCH37; Q9Y5K5; purified proteasome/UCH37, Ub-AMC cleavage fluorescence; inhibition, % (concentration not given with the values); 0.33% of 330,000 active; AID 588478;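 active = mean of two replicates above 20%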;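 note: 0% = compound-free wells with enzyme and 100% = wells lacking proteasome; stock transfer was 100 nL into about 20 µL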
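System: Proteasome-associated human UCH37 deubiquitinase; Input: 0.15 nM proteasome in added enzyme buffer; Also added: Ub-AMC substrate from 1 µM stock; Incubation: 30 min compound-proteasome preincubation then 25 min substrate reaction, room temperature; Detection: fluorescence, ex 355 nm, em 460 nm; Read-out: % inhibition of Ub-AMC cleavage fluorescence; Benchmarks: no-proteasome and no-compound wells.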
A1 inh: inhibitors of the anti-apoptotic protein A1, read as caspase activation; MEF A1-2A-BIM cells, Caspase-Glo 3/7 luminescence, 3 h; percent of clofoctol response, vehicle zero; caspase activation, % (concentration not given with the values); 0.066% of 330,000 active;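 active = over half of replicate activation scores above 10%, or exactly half above 10 with the replicate mean above 10; inconclusive = replicate mean below 10 yet half the replicates above 10; inactive = over half of replicates below 10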;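 note: wells of about 30 µL received 50 nL stock; many hits fall short of the cut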
* = called active by the depositor; ? = inconclusive; nt = not tested or not shown; & = joins results of further samples.

SMILES	Beta apoptosis	RanGTP-Impb inh	Calb FLC	T cruzi repl	LANA-H2B inh	B2AR ag	UCH37 DUB inh	A1 inh
CN(C)S(=O)(=O)c1ccc(NC(=S)NC(=O)c2ccc(Br)o2)cc1	1.5	3.6	?	-18.3	3.5	nt	-0.1	-0.9
COc1ccc(NC(=S)NC23CC4CC(CC(C4)C2)C3)cc1OC	50.1	0.7	-2.4	-0.3	-2.3	0.6	4.8	-1.1
C=CCn1c(SCC(=O)NCc2ccc3c(c2)OCO3)nc2scc(-c3ccc(F)cc3)c2c1=O	-6.3	0.5	-5.2	18.1	-0.4	1.4	1.6	-0.9
Cc1cc(C)n(-c2nnc(C)n2NS(=O)(=O)c2ccc(F)cc2)n1	-6.7	4.5	-0.8	-5.3	-0.6	-7.0	1.6	0.9
O=c1ccnc(Nc2ccc([N+](=O)[O-])cc2)[nH]1	3.7	7.1	-0.2	1.7	3.8	3.9	10.0	-1.1
Cc1ccc(-c2nc3ncccc3n2O)cc1	0.1	?	-8.9	-12.5	1.8	-3.3	3.8	-3.0
O=C1CC(NS(=O)(=O)c2cccs2)CN1c1ccc(F)cc1 (stereo not given)	1.0	-0.2	8.2	-5.5	0.0	1.4	3.4	0.2
Cc1ccccc1C(=O)c1cccn1CC(=O)NCc1ccc2c(c1)OCO2	5.6	-0.8	-3.2	-3.0	3.3	1.1	-0.8	-0.6
Cc1cccc(-n2c(O)c(C=Nc3c(C)n(C)n(-c4ccccc4)c3=O)c3ccccc3c2=O)n1	nt	1.1	7.2	6.6	-1.3	2.5&-0.5	3.0&5.2	1.0
CC(C)OC(=O)c1nn2c(C(F)(F)F)cc(-c3ccco3)nc2c1Cl	-4.8	-3.3	-0.6	4.6	-1.0	-6.8	-6.9	-0.3
COc1cc2c(cc1OC)C(c1ccccc1)NCC2 (stereo not given)	-1.1	0.3	-6.9	34.5	-1.7	-7.8	3.8	0.1
CC1(C)C(c2ccccc2)=[N+]([O-])C2(CCCCC2=O)N1O (stereo not given)	-3.5	-0.3	-0.5	-16.5	4.5	2.8	0.8	1.8
CCCCNC(=S)NCc1ccc2c(c1)cc(C)n2C	4.3	1.4	-16.7	18.6	-0.5	1.9	2.4	-0.3
O=C(Nc1ccccc1)c1cn(CCBr)cn1	nt	0.6	-4.9	-14.5	-6.4	-1.2	3.2	-5.4
CC(=O)Oc1ccc(C(=O)Nc2cccc(-c3nnc(-c4ccco4)o3)c2)cc1	12.2	0.8	-3.2	13.7	-4.3	4.5	-1.3	0.0
CCCCOC(=O)n1ccc(C(=O)Nc2ccccc2OC)n1	-3.6	6.4	-7.6	-3.1	-1.9	20.7	0.9	0.6
COc1ccccc1C(=O)NNC(=O)C(=O)NCc1ccccc1	-3.0	2.2	33.0	4.0	-2.7	-3.6	3.8	-0.6
COc1cc(/C=C\C(=O)Nc2cc(=O)n(C)c(=O)n2C)cc(OC)c1OC	0.3	1.1	29.9	-7.6	0.1	-4.9	7.6	1.1
CC(C)c1ccc(OCc2ccc(C(=O)O)o2)cc1	2.8	-1.2	1.1	1.0	3.5	-8.5	-5.7	-5.2
COc1ccccc1C(CNC(=O)c1cccc(NS(=O)(=O)c2ccc(Br)cc2)c1)N(C)C (stereo not given)	-2.3	3.9	1.2	0.1	2.7	12.5	1.8	0.5
Cc1cc(C)cc(OCC(=O)NCCN2CCOCC2)c1	2.3	4.4	-12.4	-1.1	-5.2	3.5	-0.5	1.1
CCSCc1nnc(SCC(=O)Nc2ccc(OC)cc2)n1C	3.2	-0.7	-10.3	-5.1	-0.9	2.1	3.2	0.3
COc1ccc(NC(=S)NCc2cccs2)cc1OC	-1.7	3.8	-2.7	-13.0	2.5	-6.9	5.1	-0.3
COc1cc(NC(=O)c2cccs2)c(OC)cc1NC(=O)CCC(=O)Nc1cccc2ncccc12	-1.1	-1.3	-10.1	-5.7	-10.6	-14.2	-3.0	1.1
CN(Cc1ccccc1)C1CCCN(C(=O)c2ccc(Cl)s2)C1 (stereo not given)	1.4	2.9	-12.9	0.7	1.7	-6.3	0.3	2.1
Cc1cc(NC(=O)CSc2nc(C3CCCCC3)nc3ccccc23)no1	-4.9	-0.7	-2.7	9.0	2.4	-8.6	2.2	0.4
Cc1ccc(NC(=O)COC(=O)Cn2c(C)csc2=O)cc1	-1.4	-0.8	0.4	-6.2	-2.7	-0.7	2.7	1.4
O=C(CCc1ccc(Oc2cc([N+](=O)[O-])cc([N+](=O)[O-])c2)cc1)NC1CCCC1	7.2	2.0	-7.4	62.7*	3.5	0.0	1.3	1.3
O=C(COC(=O)Cc1c(Cl)cccc1Cl)Nc1ccccc1-c1ccccc1	-3.2	?	-0.6	-3.1	0.5	1.9	5.4	0.8
COc1ccc(C)cc1NC(=O)CCc1c(C)nn(-c2ccc(N3CCCCC3)nn2)c1C	6.0	1.4	1.6	8.7	-1.1	-6.2	0.8	-1.5
CN1CCN(CCCNC(=O)c2ccc(CS(=O)(=O)c3ccc(Br)cc3)o2)CC1	-2.3	-0.8	7.0	9.3	-3.6	2.9	2.3	-1.0
COc1cccc(NC(=S)N2CCn3cccc3C2c2cccnc2)c1 (stereo not given)	-0.7	-4.8	-3.0	76.2*	-2.2	-2.0	4.2	0.3
O=C(CCn1c(=O)oc2ccccc21)Nc1cccc(Cl)c1	1.2	-0.5	4.7	-4.7	0.2	-10.6	3.4	-0.1
COCCNC(=O)c1cc(-c2ccncc2)nc2ccc(S(=O)(=O)N3CCOCC3)cc12	-4.2	-2.2	-2.6	-9.7	3.9	2.0	1.8	0.1
O=C(COC(=O)CCc1c[nH]c2ccccc12)NCCc1ccccc1	-3.2	-3.2	1.9	-2.4	-9.0	-4.7	nt	-0.7
CCc1noc(C)c1C(=O)OC(C)C(=O)c1c(C)[nH]c2ccccc12 (stereo not given)	-4.5	nt	nt	nt	-4.8	0.7	5.1	-0.5
O=C1OCc2nc3cc4c(cc3c(-c3ccc(F)cc3)c21)OCO4	-3.2	6.3	21.4	-5.9	-7.8	10.1	-79.2	-0.5
Cc1cc(F)ccc1NC(=O)Cn1c(C)csc1=O	2.3	nt	nt	nt	6.5	-2.3	2.6	-1.0
O=C(NCc1ccc2c(c1)OCO2)c1cc(COc2c(F)cccc2F)on1	1.0	0.7	-13.6	-8.6	-5.2	9.7	1.8	-0.4
O=C(NC(NC(=S)N1CCOCC1)C(Cl)(Cl)Cl)c1cccc2ccccc12 (stereo not given)	-3.2	1.1	-23.6	-8.1	-1.9	1.2	0.2	0.5
CCOC(=O)c1ccc(/C=C2\c3ccccc3C(=O)N2c2ccccc2)cc1F	10.4	nt	nt	nt	-0.8	2.2	3.1	0.9
COC(=O)CSc1ncnc2scc(-c3ccccc3)c12	-6.3	0.3	-16.6	0.9	2.5	1.5	5.9	-0.8
CCOC(=O)CNc1nc(OCC#N)nc(N2CCOCC2)n1	-0.8	0.1	-0.3	3.4	1.4	-2.5	0.6	1.0
Cc1[nH]c2ccccc2c1C(=O)CCl	nt	-2.4	95.7*	28.0	nt	5.1	4.4	nt
COc1ccc(-c2noc(N3CCCC(C(=O)Nc4ccc(C(C)=O)cc4)C3)n2)cc1 (stereo not given)	4.4	-3.1	-18.7	-2.8	-1.0	-0.3	1.3	-6.9
CCCc1cc(=O)[nH]c(SCC)n1	-2.1	2.8	22.5	-8.3	10.9	12.2	0.8	0.4
CC(=O)OCC(=O)N1CCN(c2ccc([N+](=O)[O-])cc2)CC1	-5.4	-0.3	1.4	-2.4	-3.3	0.9	11.3	2.0
COc1ccc(-c2n[nH]c(C(F)(F)F)c2-c2cc3ccccc3o2)c(O)c1	21.9	-2.1	16.7	-19.5	-3.5	-1.1	-4.6	0.2

Complete entries, quoted from the list. Order of values: Beta apoptosis	RanGTP-Impb inh	Calb FLC	T cruzi repl	LANA-H2B inh	B2AR ag	UCH37 DUB inh	A1 inh
Record of `O=C(NC(NC(=S)N1CCOCC1)C(Cl)(Cl)Cl)c1cccc2ccccc12` (stereo not given) = -3.2	1.1	-23.6	-8.1	-1.9	1.2	0.2	0.5
Record of `COc1ccc(-c2noc(N3CCCC(C(=O)Nc4ccc(C(C)=O)cc4)C3)n2)cc1` (stereo not given) = 4.4	-3.1	-18.7	-2.8	-1.0	-0.3	1.3	-6.9
Record of `COC(=O)CSc1ncnc2scc(-c3ccccc3)c12` = -6.3	0.3	-16.6	0.9	2.5	1.5	5.9	-0.8

Reprinted at random: 4 entries already listed.
SMILES	Beta apoptosis	RanGTP-Impb inh	Calb FLC	T cruzi repl	LANA-H2B inh	B2AR ag	UCH37 DUB inh	A1 inh
O=C(NCc1ccc2c(c1)OCO2)c1cc(COc2c(F)cccc2F)on1	1.0	0.7	-13.6	-8.6	-5.2	9.7	1.8	-0.4
CCOC(=O)CNc1nc(OCC#N)nc(N2CCOCC2)n1	-0.8	0.1	-0.3	3.4	1.4	-2.5	0.6	1.0
Cc1cc(F)ccc1NC(=O)Cn1c(C)csc1=O	2.3	nt	nt	nt	6.5	-2.3	2.6	-1.0
COc1ccc(-c2noc(N3CCCC(C(=O)Nc4ccc(C(C)=O)cc4)C3)n2)cc1 (stereo not given)	4.4	-3.1	-18.7	-2.8	-1.0	-0.3	1.3	-6.9

Remaining list, next part:
SMILES	Beta apoptosis	RanGTP-Impb inh	Calb FLC	T cruzi repl	LANA-H2B inh	B2AR ag	UCH37 DUB inh	A1 inh
CC(C)(C)OC(=O)N[C@@H](CCCCNC(=O)OCc1ccccc1)c1nnc([C@H](CCCCNC(=O)OCc2ccccc2)NC(=O)OC(C)(C)C)o1	-7.3	-0.9	38.9	47.6	4.2	-0.6	1.2	0.2
COCCN(CCOC)C(=O)C12CCC(C)(C(=O)C1)C2(C)C (stereo not given)	3.5	-2.8	-8.1	-20.7	-5.3	0.2	1.5	0.2
Cc1ccc(S(=O)(=O)NC(CC(C)C)C(=O)NCC(C)(C)N2CCOCC2)cc1 (stereo not given)	4.1	-1.5	4.0	-11.9	-0.8	4.2	0.1	-0.2
Cc1ccccc1CSc1nc2c(c(=O)[nH]1)CCC2	-3.8	-4.2	-20.9	-4.5	-2.6	-6.7	1.2	-0.1
COc1ccc(N2CCN(Cc3cc(=O)oc4ccc(Cl)cc34)CC2)cc1	-1.3	5.1	-0.4	3.5	0.8	-5.3	0.4	-0.9
c1ccc(SCc2nc(-c3ccncc3)n[nH]2)nc1	-3.3	0.2	-7.8	-17.9	6.2	-6.3	2.1	-0.2
Clc1ccc(-n2ncc3c(N4CCCC4)ncnc32)cc1	-1.2	1.2	25.5	4.9	-1.3	-6.6	-13.0	-0.8
O=C(NCCc1cccc(Cl)c1)c1cc([N+](=O)[O-])ccc1Cl	9.5	-1.0	-9.2	-1.9	4.7	10.0	-1.0	0.9
